Calb FLC = C. albicans growth inhibition with fluconazole, primary screen, CaCi-2 strain, Alamar Blue fluorescence | C. albicans CaCi-2 (fluconazole-resistant clinical isolate) + fluconazole, 48 h | growth inhibition, % (concentration not given with the values) | 300,000 tested, 0.57% active;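 active means most replicates above 75%; inconclusive means exactly half above 75%; inactive means most below 75%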;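 further: all wells also contain fluconazole at 8 µg/ml as a sub-toxic cotreatment; 0% = median of DMSO wells and 100% = median of geldanamycin control wells; wells of about 8 µL received 7.5 nL stock; the first replicate is given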
RanGTP-Imp inh = inhibitors of RanGTP-importin-beta interaction, primary screen, biochemical, FRET, CFP-Ran, YFP-importin-beta, homogeneous | Ran GTPase (GTP-bound) - importin-beta complex | cell-free CFP-Ran/YFP-importin-beta FRET ratio | inhibition, % (concentration not given with the values) | 300,000 tested, 1.1% active | AID 2216, 2009;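 active means most replicates above 15%; inconclusive means exactly half above 15%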;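 further: 0% = DMSO wells and 100% = Ran loaded with GDP instead of GTP; wells of about 40 µL received 100 nL stock; the first replicate is given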
HNF4A DNA FP = change in binding of human HNF4A to DNA, primary screen, biochemical, fluorescence polarization, FITC-DNA; 1 h; activity change, % at 10 µM; 360,000 tested, 0.3% active; AID 1224865, 2016; in the data active means activity change above about 30%, passing the limit was not always enough;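 further: controls were the assay level and a saturating level of protein; the project sought stronger binding though the title names inhibitors; some compounds called inactive have numbers as strong as hits; positive values seem to mean higher polarization but the record does not say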
Target sequence (P41235 whole entry, looked up): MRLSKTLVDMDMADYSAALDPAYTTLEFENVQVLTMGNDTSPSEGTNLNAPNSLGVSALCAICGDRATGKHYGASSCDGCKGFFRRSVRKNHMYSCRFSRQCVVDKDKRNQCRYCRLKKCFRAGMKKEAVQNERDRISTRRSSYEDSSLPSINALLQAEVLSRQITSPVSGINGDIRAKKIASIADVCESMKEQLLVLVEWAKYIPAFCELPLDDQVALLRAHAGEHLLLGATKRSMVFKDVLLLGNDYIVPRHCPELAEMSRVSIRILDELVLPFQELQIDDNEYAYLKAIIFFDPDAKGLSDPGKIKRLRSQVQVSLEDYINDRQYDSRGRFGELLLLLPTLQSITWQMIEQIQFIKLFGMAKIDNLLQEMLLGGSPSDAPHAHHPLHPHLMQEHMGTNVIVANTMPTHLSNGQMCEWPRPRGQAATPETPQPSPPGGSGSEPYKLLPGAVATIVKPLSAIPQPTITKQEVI
ALR inh = inhibitors of human ALR sulfhydryl oxidase, primary screen, biochemical, H2O2 detection, HRP-luminol luminescence, single point | purified ALR, DTT oxidation | inhibition, % (concentration not given with the values) | 290,000 tested, 3.8% active | AID 485317, 2010;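 active means mean and each replicate at 75% or more; inconclusive means only one of the two met; inactive means neither met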;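 further: stock transfer was 7.5 nL into about 7.5 µL; 0% = neutral wells and 100% = wells with inactivated enzyme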
Target sequence (P55789 whole entry, looked up): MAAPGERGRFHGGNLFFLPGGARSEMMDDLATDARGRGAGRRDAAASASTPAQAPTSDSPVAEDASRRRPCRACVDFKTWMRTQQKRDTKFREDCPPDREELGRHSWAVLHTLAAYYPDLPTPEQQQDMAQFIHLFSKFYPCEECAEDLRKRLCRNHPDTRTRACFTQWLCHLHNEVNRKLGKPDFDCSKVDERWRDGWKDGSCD
LANA-H2A inh = blockers of LANA interaction with H2A/H2B – biochemical, FP readout, HTS, primary screen | Protein LANA1 (Human herpesvirus 8 type P (isolate GK18)), Q9QR71 | 320,000 tested, 0.6% active | inhibition, % (test concentration not listed) | cell-free LANA-H2A/H2B peptide, fluorescence polarization; in the data active means inhibition mostly above about 10%, no sharp cut-off; inactive means mostly below about 6.7%;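 further: stock transfer was 7.5 nL into about 10 µL; 0% = median of vehicle wells and 100% = median of positive control wells; one replicate is shown; the record names a cut of 25% in any replicate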
B2AR ag = beta2AR agonists driving receptor internalization, primary screen, cell-based, FAP fluorogen, flow cytometry; response, % (test concentration not listed); 340,000 tested, 0.43% active; Beta-2 adrenergic receptor (Homo sapiens), P07550; Am2.2-beta2AR cells; reference of the scale not given here;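 active means response above a set limit, near 3 SD of response in nonfluorescent compounds, cut at about 42% in these data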;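 further: stock transfer was 100 nL into about 11 µL; a reference agonist was the positive control; negative values mostly stem from fluorescent compounds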
Target sequence (P07550 whole entry, looked up): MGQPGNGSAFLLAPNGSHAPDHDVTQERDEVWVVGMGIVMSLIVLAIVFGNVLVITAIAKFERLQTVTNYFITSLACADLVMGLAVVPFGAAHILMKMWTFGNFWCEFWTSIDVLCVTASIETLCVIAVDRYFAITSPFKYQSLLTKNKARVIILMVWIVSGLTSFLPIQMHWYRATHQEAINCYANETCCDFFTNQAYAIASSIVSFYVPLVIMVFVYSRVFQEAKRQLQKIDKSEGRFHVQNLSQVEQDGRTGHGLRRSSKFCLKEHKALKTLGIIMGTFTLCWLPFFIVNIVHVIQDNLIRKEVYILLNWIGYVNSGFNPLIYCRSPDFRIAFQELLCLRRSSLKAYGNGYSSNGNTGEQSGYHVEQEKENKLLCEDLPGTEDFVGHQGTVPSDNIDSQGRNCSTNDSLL
Vif A3G = inhibitors of Vif binding to APOBEC3G peptide, primary screen, biochemical, TR-FRET, GST-Vif 1-94, biotin-A3G peptide, dose response retest (AID 1117319) | 260,000 tested, 0.57% active | Virion infectivity factor (Human immunodeficiency virus type 1 group M subtype B (isolate … | TR-FRET GST-Vif / biotin-A3G peptide binding; higher % means a stronger effect; test concentration not given here; strong numbers were not always called active | inhibition, %, or IC50 in µM where a hit was titrated;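 active means above the screen mean plus three standard deviations and confirmed in dose response; inconclusive means results disagree or hit not tested in dose response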;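 further: Vif residues 1-94 fused to GST binding biotinylated APOBEC3G peptide 110-148; 0% = full assay without inhibitor and 100% = GST in place of GST-Vif; retest series ran down from 100 µM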
Active calls of the source: *; ? = inconclusive; nt = not tested or not shown; & = joins results of further samples. Hits appear at their usual frequency; 6.3% or so of the library scored in one or more.

SMILES	Calb FLC	RanGTP-Imp inh	HNF4A DNA FP	ALR inh	LANA-H2A inh	B2AR ag	Vif A3G
O=C(Nc1ccc2c(c1)OCCO2)C1CC(c2ccc(F)cc2)=NO1 (configuration not stated)	-4	-1.3	1.8	-3	-1.7	-3	-3%
COc1ccc(-c2nn(-c3ccccc3)cc2/C=C/C(=O)N2CCN(c3ccccn3)CC2)cc1	20	-5.7	2.7	-22	2.9	55*	28%
N#C/C(=C\c1cc2ccccc2nc1N1CCCCC1)C(N)=O	nt	nt	0.5	93*	2.6	5	nt
Cc1ccc(NC(=S)NC(NC(=O)c2ccccc2C)C(Cl)(Cl)Cl)c(C)c1 (configuration not stated)	-3	2.3	-0.8	-5	5.9	11	1%
C#CCOCCOCCOCCNc1nc(N2CCN(C(=O)Cn3cc(CCCN=C(N)N)nn3)CC2)nc(N2CCN(C(=O)[C@H](CCCCN)n3cc(CCC(=O)O)nn3)CC2)n1	nt	nt	6.4	-3	-4.1	-1	nt
Cc1ccc(S(=O)(=O)N2Cc3ccccc3CC2C(=O)Nc2cc(C)on2)cc1 (configuration not stated)	-5	2.5	1.1	0	-1.9	-4	8%
Cn1c(=O)oc2cc(S(=O)(=O)N3CCC(C(=O)NCCc4ccccc4)CC3)ccc21	0	?	-0.2	nt	0.4	-30	-2%
CC(C)c1ccc(NC(=O)c2ccc3c(c2)C(=O)N(Cc2cccnc2)C3=O)cc1	3	2.8	-0.9	0	0.7	10	-6%
COc1cc(C)nc(OCCNS(=O)(=O)c2cc(C)ccc2C)n1	18	-6.3	1.2	1	2.0	7	-3%
CCCn1cc(S(=O)(=O)c2ccc(OC)cc2)c(=O)c2cc(OCC)ccc21	1	-1.4	-2.7	-7	10	0	?
c1ccc(CNCc2ccc3c(c2)OCO3)nc1	-19	1.0	-1.0	-17	2.2	2	33%
CC1=C(C(=O)Nc2ccccc2C(=O)NC2CCCCC2C)SCCO1 (configuration not stated)	9	7.0	0.3	3	-4.1	-10	-1%
Cn1c(SCC(=O)NCc2ccco2)nnc1-c1cccs1	-2	2.2	-0.9	5	6.4	-1	-8%
Fc1ccccc1C1CC(c2ccco2)=Nc2ccccc2S1 (configuration not stated)	15	2.2	3.6	2	-1.3	-6	27%
CCc1ccccc1NC(=O)c1cc2ncc(Br)cn2n1	5	0.9	-2.9	13	4.0	3	>100µM*
CC1(C)Cc2ccccc2-c2nc(NCCCO)n(-c3ccccc3)c(=O)c21	-17	-2.3	6.2	-2	-6.6	-7	23%
O=C(CC1C(=O)NCCN1Cc1c(F)cccc1Cl)NCc1ccccc1 (configuration not stated)	3	-1.5	-1.3	-2	-2.1	9	2%
CC(=O)c1sc(NC(=O)COc2ccc([N+](=O)[O-])cc2)nc1C	-3	-0.5	-0.2	-5	-3.9	-7	-9%
CCOC(=O)C(=CNc1cc(C)nn1C(C)(C)C)C(=O)OCC	7	-180	0.7	-10	1.1	0	3%
Cc1cccc(NC(=O)c2cc(-c3ccccn3)nc3ccccc23)c1C	-12	0.1	5.5	-7	4.4	-3	nt
COCCN(C(=O)c1ccc(C)o1)c1c(N)n(CC(C)C)c(=O)[nH]c1=O	nt	nt	-2.4	0	-2.9	-6	-10%
O=C(Nc1ccc(C(=O)N2CCOCC2)cc1)C1CCCC1	nt	nt	0.9	nt	nt	6	1%
COC(=O)C1CC(O)CN1S(=O)(=O)c1cccs1 (configuration not stated)	-17	3.9	-0.8	5	1.5	7	nt
COc1cc(CCC(=O)OCC(=O)NCc2ccccc2)cc(OC)c1OC	-7	1.2	0.7	-6	0.7	-4	-5%
Cc1ccc(NC(=O)CN(C)c2ccc(S(=O)(=O)N3CCN(C)CC3)cn2)cc1	-11	-1.4	5.3	nt	-0.6	9	2%
Nn1c(Cc2ccccc2F)nnc1SCC(=O)N1CC(=O)Nc2ccccc21	-4	4.9	6.1	-7	-5.3	8	16%
N#Cc1cccc(Oc2ccc(-c3cnc4ccccc4n3)cc2)c1C#N	5	-4.0	3.8	nt	nt	-1	nt
CCOc1ccc(N(CC(=O)NCCc2ccc(F)cc2)S(=O)(=O)c2ccccc2)cc1	5	-2.9	1.6	-6	5.1	-6	6%
Cc1ccc(-n2c(SCC(=O)N3CCOCC3)nnc2-c2cccnc2)cc1C	0	0.8	-1.0	-3	7.2	-6	9%
COc1ccccc1CCNC(=O)c1cc(C2CC2)nc2c1cnn2C(C)C	nt	nt	2.5	nt	nt	4	30%
COc1cc(SC)ccc1C(=O)N1CCCCCC1	-13	-0.9	1.4	-1	3.0	0	21%
Cc1cccc(NC(=O)c2ccc(NCCc3ccccc3)c([N+](=O)[O-])c2)c1	1	-4.9	85	5	9.5	-7	9%
O=C(COC(=O)c1cccc(O)c1)Nc1ccc(S(=O)(=O)N2CCOCC2)cc1	nt	nt	-1.2	-4	1.3	9	nt
CCOC(=O)CC(NC(=O)Cc1cccs1)c1ccccc1Cl (configuration not stated)	8	-2.8	-2.0	-10	1.2	9	3%
O=C(Nc1nnc(-c2ccccc2Cl)o1)c1ccc(S(=O)(=O)N2CCCCCC2)cc1	1	-0.5	nt	4	-6.4	nt	14%
CCOc1ccc(NC(=O)CCn2cccc2)cc1	-8	-2.4	3.1	17	0.7	2	11%
CCOc1ccc(N2C(=O)CC(SC(=NC)Nc3cccc(OC)c3)C2=O)cc1 (configuration not stated)	-1	1.4	0.5	44	0.2	8	-1%
CN1Cc2ccccc2N(CC(=O)NCc2ccccc2)C1=O	-15	-2.7	0.6	-7	1.6	-6	3%
COc1ccc(NC(=O)C(C)N2c3cccc4cccc(c34)S2(=O)=O)cc1 (configuration not stated)	-40	5.3	-2.6	nt	nt	-3	7%
CCN(CC(=O)Nc1ccc(OC)cc1)C(=O)CSCC(=O)Nc1ccc(C)cc1	2	3.9	-3.4	-6	4.5	-6	nt
Cc1c(C)c(C)c(/C=[N+](/C)[O-])c(C)c1C	?	-5.4	-2.3	-7	2.0	0	10%
Cc1nnc2ccc(N3CCCCC3)nn12	21	?	-6.5	2	0.7	-11	-7%
N#Cc1ccc(NC(=O)c2cc(S(=O)(=O)N3CCOCC3)ccc2N2CCCC2)cc1	-2	1.7	0.0	-3	2.3	4	1%
CN(Cc1ccc(Cl)c(Cl)c1)C(=O)C1=CC=CN2CCS(=O)(=O)N=C12	nt	nt	0.2	-2	2.3	3	12%
CNC(=O)NC(=O)C(C)OC(=O)c1c(C)noc1C (configuration not stated)	nt	nt	-0.5	1	0.4	3	3%
CC(C)CN(C(=O)COC(=O)c1ccc([N+](=O)[O-])o1)C1CCS(=O)(=O)C1 (configuration not stated)	-4	4.6	-0.4	-56	3.1	-6	nt
O=[N+]([O-])c1ccc(-n2cccc2/C=N/Nc2nc(N3CCCCC3)nc(N3CCCCC3)n2)cc1	-8	12	nt	-2	-6.4	nt	2%
CCOC(=O)Cc1csc(SCc2nc3ccccc3c(=O)[nH]2)n1	-8	1.9	3.9	-18	-5.1	12	13%

In the list so far, two have an NH in an aromatic ring:
SMILES	Calb FLC	RanGTP-Imp inh	HNF4A DNA FP	ALR inh	LANA-H2A inh	B2AR ag	Vif A3G
COCCN(C(=O)c1ccc(C)o1)c1c(N)n(CC(C)C)c(=O)[nH]c1=O	nt	nt	-2.4	0	-2.9	-6	-10%
CCOC(=O)Cc1csc(SCc2nc3ccccc3c(=O)[nH]2)n1	-8	1.9	3.9	-18	-5.1	12	13%

New compounds follow:
SMILES	Calb FLC	RanGTP-Imp inh	HNF4A DNA FP	ALR inh	LANA-H2A inh	B2AR ag	Vif A3G
COC(=O)c1nnn(CC(=O)NC(=O)Nc2c(C)cccc2C)c1C(=O)OC	-1	-2.7	0.3	-8	-6.7	2	-4%
COC(=O)c1ccc(Cl)c(NC(=O)CN(c2ccccc2)S(=O)(=O)c2ccc(OC)cc2)c1	-4	2.3	-3.0	-1	0.6	3	14%
Cc1cccc(N(C(=O)c2nsc(Cl)c2Cl)C(C(=O)NC2CCCC2)c2ccc(O)cc2)c1C (configuration not stated)	30	2.4	-1.9	nt	nt	12	-9%
O=C(Nc1cccnc1)OC1CCCC1	10	1.7	-3.6	-17	-4.8	-1	0%
Cc1onc(-c2ccc(Cl)cc2)c1-c1ccnc(SCC(=O)Nc2cc(Cl)cc(Cl)c2)n1	2	2.6	10	nt	-4.2	6	-4%
CCOC(=O)C1CCN(C(=O)C2(NC(=O)Nc3cccc(F)c3)CCCCC2)CC1	-3	4.2	-6.1	2	4.0	5	-1%
CN(Cc1ccccc1)C(=O)CN(c1ccc(F)cc1)S(=O)(=O)c1ccc2c(c1)OCCO2	-2	-2.2	-0.3	-5	7.1	-2	-5%
CCC(OCC(O)CN1CCN(CCN2C(=O)c3cccc4cccc(c34)C2=O)CC1)c1ccccc1 (configuration not stated)	-1	30*	2.4	-90	-1.2	-5	nt
COc1ccc(OC)c(CCNC(=O)CC2Oc3ccccc3NC2=O)c1 (configuration not stated)	4	1.3	2.9	67	-0.5	-7	-2%
CCn1nnc(NC(=O)c2ccc(-c3ccc(Cl)cc3)o2)n1	?	6.1	4.1	nt	-1.0	10	11%
Cc1ccc2nc(Cl)c(C#N)cc2c1	15	2.3	-3.1	17	2.0	-12	-7%
COc1ccc(-c2sc3ccccc3c2C#CCO)cc1	2	5.2	6.9	-7	-4.2	10	nt
CC1=CC(C)(C)Nc2ccc(OC(=O)CN3C(=O)C4CCCCC4C3=O)cc21 (configuration not stated)	1	-0.8	0.3	85*	-4.2	-31	19%
O=C(NCCc1nc(-c2ccccc2)no1)c1ccccc1	-1	?	-0.7	7	-3.0	-5	nt
CCCOc1ccc(-c2nnc(-c3cccs3)o2)cc1	8	1.7	-0.5	nt	-4.6	-11	-15%
COC(=O)c1cc(OC)c(OC)cc1NC(=O)C(C)c1ccc([N+](=O)[O-])cc1 (configuration not stated)	-8	-2.6	-0.3	-13	-2.1	-3	17%
O=c1c2ccccc2c(C=NCCc2ccccc2)c(O)n1Cc1ccccc1	-1	?	-1.3	-7	3.2	1	7%
CC(CC(=O)N1CCN(S(=O)(=O)c2ccc([N+](=O)[O-])cc2)CC1)c1ccccc1 (configuration not stated)	nt	nt	-1.6	-20	-1.0	1	nt
O=C(COC(=O)c1cccc(S(=O)(=O)N2CCCC2)c1)Nc1ccccc1	32	6.1	-4.6	-6	-4.5	6	4%
O=c1c2c3n(c(=O)nc2[nH]n1-c1ccccc1)CCCCC3	-6	-1.3	-3.4	-4	0.5	0	-2%
O=C(Nc1ccc(N2CCOCC2)c(Cl)c1)c1c(F)c(F)c(F)c(F)c1F	32	-4.2	2.2	0	-1.6	26	2%
COc1ccc(CNC(=O)CCS(=O)(=O)c2cc3c(cc2Cl)NC(=O)CO3)cc1	6	3.3	-0.7	-6	-6.7	3	nt
Cn1c2ccccc2c(=O)c2ccc(F)cc21	-12	35*	-1.5	4	1.9	-11	nt
COCCn1nnnc1C(c1ccccc1)N1CCN(C(=O)c2ccco2)CC1 (configuration not stated)	19	15	1.7	0	-3.5	1	-1%
Cc1ccc(-n2c(-c3ccco3)nc3nc4ccccc4nc32)cc1	0	-7.3	7.5	1	0.5	9	8%
CN1CCN(Cc2nc3ccccc3c(=O)n2Cc2nc(-c3ccc4ccccc4c3)cs2)CC1	0	0.2	3.3&2.4	98*	2.2	3&-5	-5%

Compound activity from PubChem.
